Source: PubChem BioAssay (Broad Institute)
RanGTP-Imp inh: inhibitors of RanGTP-importin-beta interaction, primary screen, biochemical, FRET, CFP-Ran, YFP-importin-beta, homogeneous; inhibition, % (concentration not given with the values); 300,000 tested, 1.1% active; cell-free CFP-Ran/YFP-importin-beta FRET ratio;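 active = most replicates above 15%; inconclusive = exactly half above 15%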;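 note: 0% = DMSO wells and 100% = Ran loaded with GDP instead of GTP; wells of about 40 µL received 100 nL stock; the first replicate is given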
rRNA inh HTS: inhibitors of bacterial rRNA selective over humanized ribosomes. E. coli WT GFP vs humanized-ribosome RFP mutants, fluorescence, 24 h; hits give low values; DMSO median 0, no signal -100. GFP signal change (wild-type ribosome), % (concentration not given with the values). 350,000 tested, 1.6% active. AID 720706;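 active = significant combined selectivity score with lowered wild-type GFP, culture density cut under 30%, mutant RFP and density less affected; inactive = any of these conditions unmet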; note: one replicate is shown; some compounds called inactive have numbers as strong as hits
MLL AF4-AF9 inh: blocks AF4 peptide binding to human AF9; P42568; AlphaScreen, biotin-AF4 peptide binding to FLAG-AF9; inhibition, % at 10 µM; 350,000 tested, 0.47% active; AID 651704;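 active = every replicate reaching a set inhibition limit, whatever the replicate mean, cut at about 25% in these data; inconclusive = mean inhibition reaches that limit but some replicates miss it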;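 note: 0% = plate neutral control median and 100% = total signal loss; the record names both 10 and 1 µM as test concentration; the first replicate is given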
Target sequence (P42568 whole entry, looked up): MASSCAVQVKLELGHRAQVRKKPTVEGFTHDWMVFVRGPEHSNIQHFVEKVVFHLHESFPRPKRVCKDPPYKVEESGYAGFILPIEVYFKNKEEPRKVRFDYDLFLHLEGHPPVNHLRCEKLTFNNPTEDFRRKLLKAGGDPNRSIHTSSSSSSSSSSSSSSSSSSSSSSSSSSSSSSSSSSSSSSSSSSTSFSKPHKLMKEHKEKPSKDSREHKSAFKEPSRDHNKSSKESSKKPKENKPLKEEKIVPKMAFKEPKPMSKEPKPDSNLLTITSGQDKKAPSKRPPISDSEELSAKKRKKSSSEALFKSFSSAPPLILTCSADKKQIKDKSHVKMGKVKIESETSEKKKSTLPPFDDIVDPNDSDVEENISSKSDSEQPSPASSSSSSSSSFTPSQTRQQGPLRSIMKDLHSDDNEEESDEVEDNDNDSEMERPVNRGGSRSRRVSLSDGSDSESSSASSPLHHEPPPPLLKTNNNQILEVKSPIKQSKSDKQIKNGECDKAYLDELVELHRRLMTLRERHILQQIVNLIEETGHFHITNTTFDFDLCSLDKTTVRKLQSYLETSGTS
T cruzi inh: T. cruzi replication inhibition; T. cruzi beta-gal in NIH3T3, luminescence, 90 h; inhibition, % (test concentration not listed); 300,000 tested, 1.4% active;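 active = mean inhibition across valid replicates above about 55%, limit read from the data; inconclusive = mean below that limit but half or more replicates reach it; inactive = mean below it, under half of replicates reach it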;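 note: signal also drops with host cell toxicity which is not excluded here; 0% = plate median of DMSO wells and 100% = zero luminescence signal; higher percent means less beta-gal luminescence so fewer parasites; stock transfer was 50 nL into about 50 µL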
FGF22 binding: shifts melting point of recombinant human FGF22; recombinant FGF22 thermal shift, SYPRO orange fluorescence; percent of sucrose octasulfate shift, DMSO zero; calls only at 9.99 µM; 340,000 tested, 1.5% active;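 active = melting point raised past a set limit in the mean and every replicate; inconclusive = no clear call; three in four hits are not shown here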
Target sequence (Q9HCT0 whole entry, looked up): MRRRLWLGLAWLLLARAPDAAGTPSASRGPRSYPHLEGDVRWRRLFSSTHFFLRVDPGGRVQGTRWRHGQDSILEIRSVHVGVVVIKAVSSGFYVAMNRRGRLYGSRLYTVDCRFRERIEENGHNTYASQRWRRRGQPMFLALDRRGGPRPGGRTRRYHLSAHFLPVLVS
Calb FLC: C. albicans growth modulation with fluconazole. C. albicans CaCi-2 (fluconazole-resistant clinical isolate) + fluconazole, Alamar Blue growth, 48 h. growth inhibition, % (test concentration not listed). 300,000 tested, 0.57% active;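 active = most replicates above 75%; inconclusive = exactly half above 75%; inactive = most below 75%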;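 note: all wells also contain fluconazole at 8 µg/ml as a sub-toxic cotreatment; 0% = median of DMSO wells and 100% = median of geldanamycin control wells; wells of about 8 µL received 7.5 nL stock; the first replicate is given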
ALR inh: human ALR oxidase inhibition via reduced H2O2; purified ALR, DTT oxidation, H2O2 HRP-luminol luminescence; 290,000 tested, 3.8% active; inhibition, % (concentration not given with the values); P55789;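 active = mean and each replicate at 75% or more; inconclusive = only one of the two met; inactive = neither met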;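 note: stock transfer was 7.5 nL into about 7.5 µL; 0% = neutral wells and 100% = wells with inactivated enzyme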
Target sequence (P55789 whole entry, looked up): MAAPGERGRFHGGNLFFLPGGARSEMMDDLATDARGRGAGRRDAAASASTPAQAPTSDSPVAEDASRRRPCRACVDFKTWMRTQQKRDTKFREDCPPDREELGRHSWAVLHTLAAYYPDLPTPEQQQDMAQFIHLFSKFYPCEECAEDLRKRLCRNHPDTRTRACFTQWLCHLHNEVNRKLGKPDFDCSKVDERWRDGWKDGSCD
Beta cell apopt: beta cell apoptosis inhibition; INS-1E cytokine-induced death, ATP luminescence, 48 h; percent of positive-control rescue, neutral wells zero; protection from apoptosis, % (no concentration beside the values); 300,000 tested, 0.8% active; AID 435005;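 active = all replicates at 75% or more, or half of them and the mean; inconclusive = half reach 75% but not the mean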;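 note: 0% = cytokine-treated negative control wells and 100% = positive control rescue; higher means more ATP so stronger rescue from cytokine killing; wells of about 40 µL received 100 nL stock; the first replicate is given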
rRNA inh HTS OD600: recorded beside rRNA inh HTS, whose call it bears; OD600 change, %; measured here: OD600 growth;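 optical density of the mix in the first replicate; 0 = DMSO median and -100 = no signal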
rRNA inh HTS RFP: further read-out of rRNA inh HTS, marked with its call; RFP signal change, %; measured here: RFP humanized mutant strains;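 first replicate; 0 = DMSO median and -100 = no signal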
* marks the source's active call; other numbers are inactive results; i = inactive; ? = inconclusive; . = no result given; & = joins results of further samples. Some of the compounds tested. The share of hits here may be higher or lower than overall.

1	CCN(CC)c1ccc(/C=N/NC(=O)c2ccoc2C)c(O)c1
2	Cc1ccc(S(=O)(=O)Nc2n[nH]nc2C(=O)NC2CCCCC2)cc1
3	O=c1c2ccccc2oc2ccc(NCCCn3ccnc3)cc12
4	O=C(CSc1nc(-c2ccccc2)cc(=O)[nH]1)Nc1ccccc1
5	COc1ccc(/C(N)=N/OC(=O)CCc2ccccc2)cc1
6	CC1(C)CC(=O)C(C=NCC(N)=O)=C(O)C1
7	Cc1ccc(-c2ccc(=O)[nH]n2)cc1
8	Nc1ccc(O)c2c1C(=O)c1ccccc1C2=O

Assay by compound	1	2	3	4	5	6	7	8
RanGTP-Imp inh	1.3	6.5	-8.7	-0.4	-2.3	-1.1	5.0	6.1
rRNA inh HTS	-34.2*	-3.9	0.7	2.4	-14.2	-22.6*	.	-0.6
rRNA inh HTS OD600	-17.5*	-10.9	-0.5	0.5	-5.5	-2.8*	.	2.3
rRNA inh HTS RFP	-8.9*	-3.0	-13.2	-8.3	-2.6	4.8*	.	33.7
MLL AF4-AF9 inh	1.7	-2.1	3.4	2.6	0.2	-1.5	.	37.8*
T cruzi inh	57.3*	-7.1	42.6	-2.0	-9.2	-8.0	-5.5	8.2
FGF22 binding	i	i	i	i	.	i	.	i
Calb FLC	-1.8	?	-2.0	-3.9	6.5	-1.2	?	-4.7
ALR inh	72.0	-1.3	-12.8	-12.1	-12.6	-17.9	10.4	-11.7
Beta cell apopt	100.5*	-11.1	1.2	-4.6	-1.4	1.8	0.1	19.6

9	Cc1ccc(S(=O)(=O)N2CCC(C(=O)Nc3ccc(C(C)C)cc3)CC2)cc1
10	CN(C(=O)CSc1nc2scc(-c3ccccc3)c2c(=O)[nH]1)c1ccccc1
11	O=C(Nc1ncc(Cc2cccc(Cl)c2Cl)s1)c1ccc([N+](=O)[O-])cc1
12	CC(C)C(C(=O)NC1CCCC1)N(CC1CCCO1)C(=O)CNS(=O)(=O)c1ccccc1 (centres undefined)
13	CCSc1nnc2nc3[nH]c4c(C)cccc4c3nn12
14	O=C(c1ccc(Cl)cc1)N1N=CCC1(O)c1ccc(Cl)cc1 (centres undefined)
15	Cc1ccccc1C(=O)Nc1nnc(CC(=O)N/N=C/c2ccco2)s1
16	CCCCOc1ccc(-c2c(C#N)c(N)nc(SCC(N)=O)c2C#N)cc1

Assay by compound	9	10	11	12	13	14	15	16
RanGTP-Imp inh	.	.	-8.0	-4.6	-1.9	0.6	5.4	-1.0
rRNA inh HTS	0.4	-25.3	.	2.2	11.9	1.5	7.3	.
rRNA inh HTS OD600	-5.3	-60.0	.	3.6	12.7	-3.4	-3.9	.
rRNA inh HTS RFP	2.7	28.1	.	-0.5	-0.7	-0.4	-3.0	.
MLL AF4-AF9 inh	-3.9	-7.5	.	-0.4	-1.4	-4.7	-4.4	.
T cruzi inh	.	.	47.7	-5.1	8.6	-8.1	9.3	24.1
FGF22 binding	i	i	.	i	i	i	i	.
Calb FLC	.	.	-0.9	-1.1	39.1	-18.2	-2.9	6.0
ALR inh	-3.0	-0.4	-12.2	6.7	0.1	17.0	-2.8	-2.0
Beta cell apopt	10.0	-3.5	.	-3.5	1.8	-4.6	2.0	-0.7

17	COc1ccc(C(=O)NC2CC(C)(C)Cc3c2cnn3-c2ccccc2C)o1 (centres undefined)
18	CCCc1cc(=O)n2[nH]c(NCc3ccc(OC)cc3)nc2n1
19	O=C(/C(=C/O)N=Nc1ccccc1Cl)c1ccccc1
20	N#Cc1cc2c(=O)n3ccccc3nc2n(-c2ccccc2Cl)c1=O
21	Cc1c(CCOC(=O)C23CC4(C)CC(C)(CC(C)(C4)C2)C3)sc[n+]1CC(=O)c1ccccc1
22	COCCn1c(C)cc(C(=O)COc2ccc(C)nc2[N+](=O)[O-])c1C
23	CN(/N=C/c1cccnc1)c1cnc2ccccc2n1
24	Cn1c(N)c(C(=O)COC(=O)C2(c3ccccc3F)CCCC2)c(=O)n(C)c1=O

Assay by compound	17	18	19	20	21	22	23	24
RanGTP-Imp inh	0.9	?	-3.4	135.9*	?	-4.0	1.6	-2.3
rRNA inh HTS	3.7	14.9	-2.3	22.9	-51.1	-0.1	9.6	.
rRNA inh HTS OD600	-4.1	6.3	-5.2	12.9	-76.2	1.6	25.0	.
rRNA inh HTS RFP	-0.3	-0.8	2.3	-0.8	-22.4	-1.9	-1.8	.
MLL AF4-AF9 inh	3.4	0.7	5.7	-2.1	15.6	-3.6	1.7	.
T cruzi inh	-3.5	-11.8	6.1	-9.0	31.0	3.1	17.7	19.1
FGF22 binding	i	i	.	i	i	i	i	.
Calb FLC	-0.9	-19.7	28.5	26.4	112.8*	-17.5	51.4	-16.5
ALR inh	5.9	-0.7	4.4	-12.7	-7.6	-14.2	-6.5	28.8
Beta cell apopt	-5.9	-9.7	-0.1	-5.2	22.0	-0.3	7.0	-1.1

25	COc1cc(C(=O)Nc2ccc(Br)cc2C(=O)c2cc(OC)c(OC)c(OC)c2)cc(OC)c1OC
26	NS(=O)(=O)c1ccc(CCNC(=O)COC(=O)c2ccc([N+](=O)[O-])o2)cc1
27	Clc1ccc(CNc2ncccn2)cc1
28	Cc1cccc2cc(CN(Cc3ccccc3)C(=S)NCCCN(C)C)c(=O)[nH]c12
29	COc1ccc(C)cc1S(=O)(=O)N1CCCCCC1
30	COc1ccccc1C(=O)Nc1ccccc1C(=O)NC1CCCCC1
31	C[C@H](CO)N1C[C@H](C)[C@H](CN(C)S(=O)(=O)c2ccccc2)Oc2c(NS(C)(=O)=O)cccc2C1=O
32	O=[N+]([O-])c1ccc(N/N=C/c2ccccc2)cc1

Assay by compound	25	26	27	28	29	30	31	32
RanGTP-Imp inh	2.2	.	1.1	.	0.5	0.9	.	7.9
rRNA inh HTS	.	-13.1	3.1	-1.8	2.6	-1.0	5.9&4.2	-2.0
rRNA inh HTS OD600	.	4.7	2.9	-0.7	-10.7	6.5	13.5&4.3	9.9
rRNA inh HTS RFP	.	-0.6	-1.9	6.1	-8.8	-2.2	1.9&-8.7	-1.8
MLL AF4-AF9 inh	.	-5.6	-1.8	5.1	6.3	0.0	-6.9&-0.5	-0.3
T cruzi inh	-18.4	.	-24.0	23.6	-14.1	-4.5	.	40.6
FGF22 binding	.	i	i	i	i	i	i	.
Calb FLC	-2.9	.	-10.5	-3.1	11.6	2.2	.	-28.5
ALR inh	-2.1	-25.4	27.1	-23.3	3.0	7.3	2.3	-0.8
Beta cell apopt	-0.2	-3.0	1.6	-5.0	-13.0	-10.5	-1.8	6.5

33	CCN1CCN(c2ccc(NC(=O)c3ccc4c(c3)[nH]c(=O)n4Cc3ccc(F)cc3)cc2)CC1
34	CCCCCCN1C=CC=C/C1=C\C=C(C#N)C#N
35	O=C(Nc1ccc(F)cc1)c1ccc(NC(=O)C2CCCO2)cc1 (centres undefined)
36	O=C(NCCO)c1cc2c(s1)CCC2
37	Oc1oc(-c2ccccc2)nc1/C=N/c1nccs1
38	O=C(c1ccc(CS(=O)(=O)c2ccc(Br)cc2)o1)N1CCCCCC1
39	Cc1ccc(CN2CCNC(=O)C2CC(=O)NCCCn2cccn2)o1 (centres undefined)
40	COc1ccccc1NCC(=O)N1CCN(S(=O)(=O)c2ccccc2)CC1

Assay by compound	33	34	35	36	37	38	39	40
RanGTP-Imp inh	-0.8	-6.8	3.6	2.1	-1.2	1.8	-1.3	.
rRNA inh HTS	-3.7	30.1	.	.	4.6	0.5	6.8	4.4
rRNA inh HTS OD600	9.8	-10.0	.	.	7.7	-1.0	6.5	8.6
rRNA inh HTS RFP	1.0	17.1	.	.	-0.3	-1.4	-0.6	-1.4
MLL AF4-AF9 inh	9.3	6.7	.	.	-1.8	0.9	-5.3	-16.6
T cruzi inh	41.1	18.5	-5.7	-10.6	3.2	-17.1	-28.8	.
FGF22 binding	i	i	.	.	i	i	i	i
Calb FLC	-39.4	28.9	-7.2	-1.4	0.1	5.9	-3.2	.
ALR inh	-7.9	31.7	3.9	3.6	12.3	-29.7	-1.3	-1.0
Beta cell apopt	4.4	-2.5	-0.8	-8.8	-11.3	.	0.0	?

41	CCCCN(C(=O)CSc1nnnn1-c1ccccc1OC)C1CCS(=O)(=O)C1 (centres undefined)
42	Cc1nc2ccc([N+](=O)[O-])cc2c(=O)n1Cc1ccc([N+](=O)[O-])cc1
43	O=C(Nc1ccc2c(c1)OCO2)c1cccs1
44	CCCC(=O)Nc1ccc(C(=O)NNC(=S)NC(=O)c2ccc(Br)o2)cc1
45	Cc1ccc(SC(C)C(=O)N2CCC(C(N)=O)CC2)cc1 (centres undefined)
46	CN(C)C(=O)C(CCN1CCC(O)(c2ccc(Cl)cc2)CC1)(c1ccccc1)c1ccccc1
47	COc1ccc2nc(/N=C/c3c(C)[nH]n(-c4ccc(C)cc4C)c3=O)sc2c1
48	COC(=O)c1ccc(OC)cc1OCC(=O)N1CCN(c2ccc(F)cc2)CC1

Assay by compound	41	42	43	44	45	46	47	48
RanGTP-Imp inh	2.1	-2.4	0.5	0.3	0.3	4.9	-2.6	-3.5
rRNA inh HTS	0.2	9.7	.	-26.6*	5.5	.	-0.5	.
rRNA inh HTS OD600	6.9	5.4	.	-14.8*	3.6	.	-0.1	.
rRNA inh HTS RFP	-1.1	-1.7	.	0.0*	0.1	.	-8.7	.
MLL AF4-AF9 inh	0.0	2.2	.	-0.7	0.5	2.6&6.4	4.3	.
T cruzi inh	5.9	34.5	-10.5	-12.1	-13.0	?	-10.8	9.2
FGF22 binding	i	i	.	i	.	i	i	.
Calb FLC	-4.2	-3.3	-15.3	1.4	-4.6	.	-2.9	-5.9
ALR inh	-2.6	-18.8	-13.2	1.0	-3.1	.	-64.9	27.1
Beta cell apopt	-2.3	2.6	9.0	.	-1.9	6.6	0.9	-1.2

Some entries already given with just RanGTP-Imp inh and T cruzi inh.
entry	smiles	RanGTP-Imp inh	T cruzi inh
45	Cc1ccc(SC(C)C(=O)N2CCC(C(N)=O)CC2)cc1 (centres undefined)	0.3	-13.0
46	CN(C)C(=O)C(CCN1CCC(O)(c2ccc(Cl)cc2)CC1)(c1ccccc1)c1ccccc1	4.9	?
47	COc1ccc2nc(/N=C/c3c(C)[nH]n(-c4ccc(C)cc4C)c3=O)sc2c1	-2.6	-10.8

Continued.
49	CCOC(=O)c1ccc(CNC(=O)CSc2nnnn2-c2ccc(Cl)cc2)o1
50	COc1ccccc1S(=O)(=O)n1cc(Cc2ccccc2)c(N)n1
51	O=C1c2ccccc2NC(c2cccc(F)c2)N1Cc1ccccc1 (centres undefined)
52	Cc1cc(NC(=O)CCSc2nc(-c3ccco3)cc(C(F)(F)F)n2)n(-c2ccccc2)n1

Assay by compound	49	50	51	52
RanGTP-Imp inh	3.4	-0.6	-1.2	-0.7
rRNA inh HTS	.	.	-2.3	-5.4
rRNA inh HTS OD600	.	.	-7.8	-24.6
rRNA inh HTS RFP	.	.	-2.6	-0.4
MLL AF4-AF9 inh	.	.	-30.2	.
T cruzi inh	6.7	.	2.1	9.3
FGF22 binding	.	.	i	.
Calb FLC	-7.5	7.4	3.9	-3.0
ALR inh	-3.6	56.5	3.2	-1.5
Beta cell apopt	3.3	-5.2	-4.4	9.4
